Vaccinia stage = blocks a specific stage of Vaccinia orthopoxvirus infection, primary screen, cell-based, single point | Vaccinia-infected cells, mCherry/Venus stage reporter fluorescence; hits give low values; some inactives read as strong as hits | activity change (mCherry), % (concentration not given with the values) | actives 0.01% (n = 89,000) | AID 1053133, 2014;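 active means mCherry past -33% and 40 or more points under the early reporter, replicates agreeing; inconclusive means past -33% without that gap or agreement; tested in A549 cells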;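 further: scaled between vehicle wells and reference inhibitor wells; 23 nL library stock went into each well; one replicate is shown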
Vaccinia stage Venus = second read-out of Vaccinia stage, no call of its own (marks repeat the call); activity change (Venus), %; measured here: Venus reporter, other viral stage;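 negative = less Venus signal; first of two replicates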
An asterisk follows results filed as active; ? = inconclusive; · = not tested or not shown.

#1 C[C@@H]1CN([C@H](C)CO)C(=O)c2cc(NS(=O)(=O)c3ccc(Cl)cc3)ccc2O[C@@H](C)CCCCO[C@@H]1CN(C)Cc1ccc2c(c1)OCO2
#2 C[C@@H]1CN([C@H](C)CO)S(=O)(=O)c2ccc(-c3cccc(F)c3)cc2O[C@H]1CN(C)CC1CC1
#3 CO[C@H]1CN(C)C(=O)c2cc(NC(=O)Cc3ccccc3)ccc2OC[C@H](C)N(CC2CC2)C[C@H]1C
#4 C[C@@H]1CN([C@H](C)CO)C(=O)c2cc(-c3ccc(F)cc3)cnc2O[C@@H]1CN(C)C(=O)Cc1ccccn1
#5 C[C@@H]1CN([C@@H](C)CO)C(=O)c2cc(-c3ccncc3)cnc2O[C@H]1CN(C)C(=O)CN1CCOCC1
#6 COc1ccc2c3c([nH]c2c1)[C@H](CO)N(C(=O)Nc1ccccc1F)CC31CN(C(=O)c2ccccc2F)C1
#7 C[C@H]1CCCCO[C@H](CN(C)C(=O)c2ccccc2)[C@@H](C)CN([C@@H](C)CO)C(=O)c2cc(NS(=O)(=O)c3cccs3)ccc2O1
#8 CC=Cc1ccc2n(c1=O)C[C@@H]1[C@@H](CO)[C@H](C(=O)NCc3ccccc3)[C@H]2N1Cc1ccccc1OC (mixture of isomers)
#9 COc1ccccc1-c1ccc2c(c1)[C@H]1[C@H](CCN1C(=O)C1CCCC1)[C@@H](CO)N2
#10 O=C(C[C@H]1CC[C@@H](NC(=O)C2CCOCC2)[C@H](CO)O1)Nc1nccs1
Compound | 1 | 2 | 3 | 4 | 5 | 6 | 7 | 8 | 9 | 10
Vaccinia stage | ? | -32 | 4 | 1 | 39 | -14 | -7 | -9 | ? | -2
Vaccinia stage Venus | -19 | -24 | -4 | 6 | 22 | -25 | -5 | -9 | · | 9

#11 C[C@@H]1CN([C@H](C)CO)C(=O)c2cc(-c3cccc(C(=O)N(C)C)c3)cnc2O[C@@H]1CN(C)C
#12 CC(C)C#Cc1ccc2c(c1)O[C@@H](CN(C)C(=O)CN(C)C)[C@H](C)CN([C@H](C)CO)S2(=O)=O
#13 Cc1noc(C)c1S(=O)(=O)Nc1cccc2c1O[C@@H](CN(C)Cc1ccc(C(=O)Nc3ccccc3N)cc1)[C@@H](C)CN([C@@H](C)CO)C2=O
#14 O=C(NCc1ccccc1)[C@@H]1[C@@H](CO)[C@@H]2Cn3c(cccc3=O)[C@H]1N2C(=O)Cc1ccccn1
#15 CN(C)C(=O)c1cccc(-c2ccc([C@H]3[C@@H](CO)N4C(=O)CN(C(=O)C5CC5)C[C@@H]34)cc2)c1
#16 O=C(C[C@@H]1CC[C@@H]2[C@H](COC[C@H](O)CN2C(=O)Cc2ccccc2)O1)NC1CCC1
#17 CO[C@H](CN(C)S(=O)(=O)c1ccc(F)cc1)[C@@H](C)CN(Cc1ccccc1Cl)[C@@H](C)CO
#18 O=C(Nc1cc(F)ccc1F)N[C@@H]1CC[C@H](CCn2cc(C3CCCCC3)nn2)O[C@H]1CO
#19 COCC(=O)N(C)C[C@H]1[C@H](c2ccccc2)[C@@H](CO)N1C(=O)Cc1cccnc1
#20 C[C@@H]1CN([C@@H](C)CO)S(=O)(=O)c2ccc(-c3cccnc3)cc2O[C@H]1CN(C)C(=O)C1CCCCC1
Compound | 11 | 12 | 13 | 14 | 15 | 16 | 17 | 18 | 19 | 20
Vaccinia stage | 24 | -12 | 13 | 8 | 17 | 7 | -5 | -25 | 11 | -4
Vaccinia stage Venus | 10 | -1 | 3 | 4 | 15 | -2 | 0 | -19 | 8 | 5

Single records, as listed above. Screens in order: Vaccinia stage	Vaccinia stage Venus
C[C@@H]1CN([C@H](C)CO)C(=O)c2cc(-c3cccc(C(=O)N(C)C)c3)cnc2O[C@@H]1CN(C)C is entered as 24	10
O=C(C[C@@H]1CC[C@@H]2[C@H](COC[C@H](O)CN2C(=O)Cc2ccccc2)O1)NC1CCC1 is entered as 7	-2
COCC(=O)N(C)C[C@H]1[C@H](c2ccccc2)[C@@H](CO)N1C(=O)Cc1cccnc1 is entered as 11	8

New compounds follow:
#21 CCCNC(=O)N1C[C@@H]2[C@H](c3ccccc31)[C@@H](CO)N2C(=O)c1ccccc1
#22 N#C[C@@H]1[C@H](c2ccc(-c3cccc(F)c3)cc2)[C@@H](CO)N1S(=O)(=O)c1cccc(F)c1
#23 CCCNC(=O)C[C@H]1C[C@H]2c3cc(NC(=O)Nc4ccc(OC)cc4)ccc3O[C@H]2[C@H](CO)O1
#24 C[C@@H]1CCCCO[C@@H](CN(C)C(=O)Cc2ccccc2)[C@@H](C)CN([C@H](C)CO)C(=O)c2cc(NC(=O)Nc3ccccc3)ccc2O1
#25 CC(C)NC(=O)N(C)C[C@@H]1Oc2c(NS(=O)(=O)c3ccc(F)cc3)cccc2C(=O)N([C@@H](C)CO)C[C@H]1C
#26 Cc1ccccc1-c1cnc2c(c1)C(=O)N([C@H](C)CO)C[C@@H](C)[C@@H](CN(C)Cc1ccccc1F)O2
#27 C[C@@H]1CN([C@H](C)CO)C(=O)c2cc(NC(=O)Cc3ccccc3)ccc2O[C@@H]1CN(C)C(=O)Nc1cccc2ccccc12
#28 C[C@@H]1CN([C@@H](C)CO)C(=O)c2cc(NC(=O)Nc3cccc4ccccc34)ccc2O[C@H]1CN(C)C(=O)Nc1ccc(F)cc1
#29 C[C@@H]1CN([C@H](C)CO)S(=O)(=O)c2ccc(C3=CCCCC3)cc2O[C@@H]1CN(C)C(=O)Cc1cccnc1
#30 C[C@H](CO)N1C[C@H](C)[C@H](CN(C)C)Oc2c(NC(=O)c3ccncc3)cccc2C1=O
Compound | 21 | 22 | 23 | 24 | 25 | 26 | 27 | 28 | 29 | 30
Vaccinia stage | 10 | -27 | 11 | 29 | 12 | -19 | 1 | 16 | -15 | 13
Vaccinia stage Venus | 19 | -17 | 4 | 13 | 0 | -6 | -2 | 7 | -10 | 0

#31 Cc1noc(C)c1S(=O)(=O)Nc1ccc2c(c1)C(=O)N([C@@H](C)CO)C[C@H](C)[C@H](CN(C)S(=O)(=O)c1ccc(Cl)cc1)OCCCC[C@@H](C)O2
#32 COCC(=O)N[C@H]1CC[C@H](CC(=O)N2CCCCC2)O[C@H]1CO
#33 CCCC#Cc1cnc2c(c1)C(=O)N([C@@H](C)CO)C[C@@H](C)[C@@H](CN(C)Cc1ccc(F)cc1)O2
#34 O=C(C1CC1)N1CCCCN2[C@H](C1)[C@H](c1ccc(-c3cccc(F)c3)cc1)[C@@H]2CO
#35 CCCC#Cc1ccc2c(c1)O[C@@H](CN(C)Cc1ccc3c(c1)OCO3)[C@@H](C)CN([C@@H](C)CO)S2(=O)=O
#36 C[C@H](CO)N1C[C@H](C)[C@@H](CN(C)C(=O)Nc2ccc3c(c2)OCO3)Oc2ccc(NC(=O)Cc3ccccc3)cc2CC1=O
#37 C[C@@H]1CN([C@@H](C)CO)C(=O)Cc2cc(NC(=O)Nc3ccc(F)cc3)ccc2O[C@H]1CN(C)S(=O)(=O)c1ccccc1
#38 O=C(N[C@@H]1CC[C@H](CCn2cc(C3(O)CCCC3)nn2)O[C@H]1CO)C1CC1
#39 CNC(=O)C[C@H]1CC[C@H]2[C@@H](COC[C@@H](O)CN2Cc2ccccc2F)O1
#40 COc1ccc(CN(C)C[C@@H]2Oc3c(NC(=O)Nc4ccccc4)cccc3C(=O)N([C@H](C)CO)C[C@H]2C)cc1
Compound | 31 | 32 | 33 | 34 | 35 | 36 | 37 | 38 | 39 | 40
Vaccinia stage | -16 | 0 | -31 | -26 | -17 | 7 | -1 | 8 | 2 | -6
Vaccinia stage Venus | -21 | -1 | -21 | -12 | -20 | 4 | 1 | 8 | -4 | -10

#41 C[C@H]1CN([C@@H](C)CO)C(=O)c2cccc(NC(=O)C3CCCCC3)c2O[C@H]1CN(C)Cc1ccccc1
#42 C[C@H]1CN([C@@H](C)CO)C(=O)c2cccc(NC(=O)c3ccncc3)c2O[C@H]1CN(C)Cc1ccc(C(=O)Nc2ccccc2N)cc1
#43 C[C@H](CO)N1C[C@H](C)[C@@H](CN(C)CC2CC2)Oc2c(NS(=O)(=O)c3ccc(F)cc3)cccc2C1=O
#44 COc1ccccc1NC(=O)N[C@H]1CC[C@@H](CCn2cc(C3(O)CCCC3)nn2)O[C@H]1CO
#45 C[C@@H]1CN([C@H](C)CO)C(=O)c2cc(-c3cccnc3)cnc2O[C@H]1CN(C)S(C)(=O)=O
#46 COc1cccc(C#Cc2ccc([C@@H]3[C@@H](CO)N4C(=O)CN(C(C)=O)C[C@@H]34)cc2)c1
#47 COc1cccc(-c2ccc3c(c2)O[C@@H](CN(C)CC2CC2)[C@@H](C)CN([C@H](C)CO)S3(=O)=O)c1
#48 COc1ccc(NC(=O)N[C@H]2CC[C@@H](CCNC(=O)c3cc(Cl)cc(Cl)c3)O[C@@H]2CO)cc1
#49 O=C(Cc1ccccc1)N1CCCCN2[C@H](CO)[C@@H](c3ccc(C#Cc4ccccc4)cc3)[C@@H]2C1
#50 C[C@H]1CN([C@@H](C)CO)S(=O)(=O)c2ccc(C#CC3(O)CCCC3)cc2O[C@@H]1CN(C)C(=O)c1cccnc1
Compound | 41 | 42 | 43 | 44 | 45 | 46 | 47 | 48 | 49 | 50
Vaccinia stage | -1 | -7 | -10 | -3 | 11 | -10 | -23 | -16 | ? | 1
Vaccinia stage Venus | -1 | 7 | 3 | 5 | 2 | -9 | -12 | -6 | · | 1

#51 Cc1noc(C)c1S(=O)(=O)Nc1ccc2c(c1)C(=O)N([C@@H](C)CO)C[C@@H](C)[C@H](CN(C)S(=O)(=O)c1cn(C)cn1)O2
#52 C[C@H]1CN([C@@H](C)CO)C(=O)c2cc(C#Cc3ccccc3)cnc2O[C@H]1CN(C)C(=O)CCN1CCCCC1
#53 C[C@H]1CN([C@@H](C)CO)C(=O)Cc2cc(NC(=O)Nc3cccc4ccccc34)ccc2O[C@H]1CN(C)Cc1ccc(-c2ccccc2)cc1
#54 COCC(=O)Nc1ccc2c(c1)OC[C@@H](C)N(Cc1ccccc1F)C[C@H](C)[C@H](OC)CN(C)C2=O
#55 C[C@H]1CCCCO[C@H](CN(C)C(=O)Nc2cccc3ccccc23)[C@@H](C)CN([C@@H](C)CO)C(=O)c2cc(NS(=O)(=O)c3ccc(Cl)cc3)ccc2O1
#56 O=C(C[C@H]1C=C[C@H](NC(=O)c2ccc(F)cc2)[C@@H](CO)O1)NCCc1ccncc1
#57 C[C@H](C(=O)N(C)C[C@H]1OCc2ccccc2-c2ccccc2C(=O)N([C@@H](C)CO)C[C@H]1C)c1ccccc1
#58 CO[C@@H](C(=O)N(C)C[C@H]1OCc2ccccc2-c2c(n(C)c3ccccc23)C(=O)N([C@@H](C)CO)C[C@@H]1C)c1ccccc1
#59 C[C@@H]1CN([C@@H](C)CO)C(=O)c2cc(NS(=O)(=O)c3cn(C)cn3)ccc2O[C@@H](C)CCCCO[C@H]1CN(C)Cc1ccc(C(F)(F)F)cc1
#60 C[C@H]1CN([C@@H](C)CO)C(=O)CCCn2cc(nn2)CO[C@H]1CN(C)C(=O)NC1CCCC1
Compound | 51 | 52 | 53 | 54 | 55 | 56 | 57 | 58 | 59 | 60
Vaccinia stage | 2 | ? | 10 | -14 | 0 | 7 | -1 | ? | -24 | 15
Vaccinia stage Venus | 6 | · | 1 | -19 | 6 | 8 | 2 | · | -26 | 13

#61 Cc1cc(C(=O)Nc2ccc3c(c2)C(=O)N(C)[C@@H]2CC[C@@H](CC(=O)NCc4ccc(-c5ccccc5)cc4)O[C@H]2CO3)no1
#62 Cc1nn(C)cc1NC(=O)C[C@@H]1CC[C@H]2[C@@H](COc3ccc(NC(=O)C4CCOCC4)cc3C(=O)N2C)O1
#63 CN1[C@@H]2Cn3c(ccc(C4=CCCCC4)c3=O)[C@H]1[C@@H](C(=O)N1CCCCC1)[C@@H]2CO
#64 COCC(=O)NC[C@@H]1[C@@H](c2ccc(C3=CCCC3)cc2)[C@@H](CO)N1C(=O)C1CC1
#65 CO[C@H]1CN(C)C(=O)c2ccc(NC(=O)C3CC3)cc2OC[C@@H](C)N(C(=O)c2cccnc2)C[C@@H]1C
#66 C[C@@H]1CN([C@@H](C)CO)C(=O)c2cccc(NC(=O)c3cnccn3)c2O[C@@H]1CN(C)Cc1ccc(-c2ccccc2)cc1
#67 C[C@@H]1CN([C@H](C)CO)C(=O)c2cc(NC(=O)Cn3cnnn3)ccc2O[C@H]1CN(C)S(=O)(=O)c1ccc(F)cc1
#68 C[C@@H]1CN([C@H](C)CO)C(=O)c2cc(NC(=O)CCCN(C)C)ccc2O[C@@H]1CN(C)Cc1ccc(Oc2ccccc2)cc1
#69 O=C(C[C@@H]1C[C@@H]2c3cc(NC(=O)NC4CCCCC4)ccc3O[C@@H]2[C@@H](CO)O1)NC1CCCC1
#70 COc1ccc(S(=O)(=O)Nc2ccc3c(c2)[C@@H]2C[C@@H](CC(=O)O)O[C@@H](CO)[C@@H]2O3)cc1
Compound | 61 | 62 | 63 | 64 | 65 | 66 | 67 | 68 | 69 | 70
Vaccinia stage | -32 | 2 | 11 | 7 | 12 | ? | -6 | -28 | 32 | 4
Vaccinia stage Venus | -29 | -3 | 3 | -5 | 6 | · | 8 | -19 | 23 | 6

#71 C[C@H]1CN([C@@H](C)CO)C(=O)c2c(c3ccccc3n2C)-c2ccccc2CO[C@@H]1CN(C)Cc1ccccc1
#72 O=C(Cc1ccccn1)N1CCCCN2[C@H](CO)[C@@H](c3ccc(-c4ccccc4)cc3)[C@H]2C1
#73 C[C@H](CO)N1C[C@H](C)[C@H](CN(C)CC2CCCCC2)OCCCC[C@H](C)Oc2ccc(NC(=O)c3ccccc3)cc2C1=O
#74 C[C@H]1CN([C@@H](C)CO)C(=O)CCCn2cc(nn2)CO[C@@H]1CN(C)C(=O)Cc1ccccc1
#75 CO[C@@H]1CC[C@H]2CCN(C)C(=O)[C@@H](C)[C@H](OC)CN(C)C(=O)c3cc(C#N)ccc3OC[C@@H]1O2
Compound | 71 | 72 | 73 | 74 | 75
Vaccinia stage | ? | 15 | ? | 7 | 1
Vaccinia stage Venus | · | -1 | · | 11 | 0

The list is partial (hit frequency here may not be typical).
